Bioassay records deposited in PubChem by Broad Institute.
Tgondii IFNg – T. gondii growth inhibition with IFN-gamma, primary screen, cell-based; Toxoplasma gondii growth in IFN-gamma-treated host cells; hits give low values; reference of the scale not given here; 69,000 compounds, 3.8% hits; AID 1259416, 2018; activity change, negative = inhibition, %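 (about 20 µM by stock and volumes)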;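 active means below -70%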;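 further: host cells are HeLa cells infected with Toxoplasma gondii; parasite growth read as luciferase light; one replicate is shown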
Starred values were filed as active, the others as inactive; i = inactive; & = joins results of further samples.

smiles | Tgondii IFNg
COc1ccc(-c2cc(C(=O)N3CCC(C(=O)N4CCCCCC4)CC3)on2)cc1 | 3
COc1ccc(S(=O)(=O)NCc2nc(-c3ccccc3)oc2C)cc1OC | 53
c1ccc2c(c1)-c1ccccc1C2Cn1cnc2ccccc21 | -10
O=C(Cn1c(=O)n(-c2ccccc2)c(=O)n1CC(=O)N1CCCCC1)N1CCCCC1 | -10
CCOC(=O)c1[nH]ncc1C1CC(=O)Nc2c1ccc(N1CCCC1)c2C (stereo not given) | 15
CN(C)c1ccccc1C(=O)N1CCC2(CC1)c1ccccc1[C@@H](N)[C@@H]2O | -3
CN(C)C(=O)c1ccc(-c2ccc(C3[C@H]4CNC[C@@H]3N4C(=O)Nc3cc(F)ccc3F)cc2)cc1 (stereo not given in full) | 30
Cc1ccc2[nH]cc(-c3ccc(CN)s3)c2c1 | 7
O=C(Cc1ccccc1)N1CC[C@@H]2[C@H](CO)Nc3ccc(C4=CCCCC4)cc3[C@@H]21 | -64
CCC(=O)N1[C@H](CO)[C@@H](c2ccccc2)C12CN(C(=O)Nc1ccccc1F)C2 | -17
O=C(C[C@H]1CC[C@H]2[C@@H](COC[C@@H](O)CN2S(=O)(=O)c2cccc(Cl)c2)O1)N1CCOCC1 | -21
CC(=O)N1CCC(C(=O)NCc2ccccc2)(N(Cc2cccc(F)c2)C(=O)c2ccc(C)cc2)CC1 | -33
CCc1cc(C(C)=O)c(O)cc1OCCCCCC(C)(C)c1nn[nH]n1 | 40&53
Cc1ccc(C(=O)NCC2CCN(Cc3nc4ccccc4[nH]3)C2)cn1 (stereo not given) | -48
Cn1cc(CN2CC(OCc3cccnc3)CN(Cc3cccc4ccccc34)CC2=O)cn1 (stereo not given) | 0
COc1ccc(CN2[C@@H]3CC[C@H]2CN(C)C(=O)C3)cc1Cn1cccn1 | 0

Some of these compounds in order of SMILES length, high to low:
smiles | Tgondii IFNg
O=C(C[C@H]1CC[C@H]2[C@@H](COC[C@@H](O)CN2S(=O)(=O)c2cccc(Cl)c2)O1)N1CCOCC1 | -21
O=C(Cc1ccccc1)N1CC[C@@H]2[C@H](CO)Nc3ccc(C4=CCCCC4)cc3[C@@H]21 | -64
CCC(=O)N1[C@H](CO)[C@@H](c2ccccc2)C12CN(C(=O)Nc1ccccc1F)C2 | -17
COc1ccc(CN2[C@@H]3CC[C@H]2CN(C)C(=O)C3)cc1Cn1cccn1 | 0
CCOC(=O)c1[nH]ncc1C1CC(=O)Nc2c1ccc(N1CCCC1)c2C (stereo not given) | 15
COc1ccc(S(=O)(=O)NCc2nc(-c3ccccc3)oc2C)cc1OC | 53
Cc1ccc2[nH]cc(-c3ccc(CN)s3)c2c1 | 7

(listing goes on)
smiles | Tgondii IFNg
CN(C)C(=O)[C@H]1C[C@@H]2CCN(S(C)(=O)=O)C[C@H]2O1 | -2
Cc1cc(S(=O)(=O)N(C)Cc2cc(C3CCNCC3)nn2C)ccc1F | -33
C[C@@H]1CCCCO[C@H](CN(C)C(=O)NC2CCCCC2)[C@@H](C)CN([C@H](C)CO)C(=O)c2cc(N(C)C)ccc2O1 | 179
C[C@@H]1CN([C@@H](C)CO)C(=O)c2cccc(NC(=O)Nc3ccc4c(c3)OCO4)c2O[C@@H]1CN(C)S(C)(=O)=O | 4
CC(C)n1cnnc1CN(C)C(=O)C1CC2(CCNCC2)CN1 (stereo not given) | 59
Cc1ccc2[nH]c3c(=O)n(CCc4cnc[nH]4)cnc3c2c1 | 44
N#Cc1cccc(C#N)c1Oc1ccc(N)cc1 | 20
CCCSc1ncccc1C(=O)Nc1cc(C(C)(C)C)sc1C(C)=O | -60
CC(C)CC(NS(=O)(=O)c1ccc2[nH]c(=O)ccc2c1)C(=O)Nc1ccccc1 (stereo not given) | 58
Cc1cc(OCC(=O)C(C)(C)C)c2c(C)c(C)c(=O)oc2c1 | -17
CN(CCC1CCCCO1)C(=O)c1ccc(CSc2ncn[nH]2)o1 (stereo not given) | 18
Cc1ccc(C2=NC3(CCN(Cc4ccccc4F)CC3)NC2=O)cc1C | -3
C[C@H](CO)N1C[C@H](C)[C@@H](CN(C)Cc2ccncc2)OCCCC[C@H](C)Oc2ccc(NS(=O)(=O)c3ccc(Cl)cc3)cc2C1=O | -94*
CC(C(=O)NCc1cccnc1-n1ccnc1)n1cnc2ccccc21 (stereo not given) | -11
CN(C)C(=O)N1CC(C(=O)NCC2CC2)C2(CCOCC2)C1 (stereo not given) | 12
CCc1ccc(CNC(=O)Cn2ncc3c(N4CCCCCC4)ncnc32)cc1 | -92*

Two compounds drawn at random from those above, as already listed:
smiles | Tgondii IFNg
CC(C)CC(NS(=O)(=O)c1ccc2[nH]c(=O)ccc2c1)C(=O)Nc1ccccc1 (stereo not given) | 58
CC(C(=O)NCc1cccnc1-n1ccnc1)n1cnc2ccccc21 (stereo not given) | -11

Remaining list, next part.
smiles | Tgondii IFNg
CC(C)Oc1cccc(C(=O)N2CCCC2)c1 | 4
CC(C)CCN1CCCn2nnc(COc3cccnc3)c2C1 | -1
COCCN1CCN(S(=O)(=O)c2ccccc2)Cc2cccnc21 | -19
CCC(=O)N1[C@H](CO)[C@H](c2ccccc2)[C@H]1CN(CC)C(=O)c1cccc(F)c1 | 19
CCCN1C(=O)C(Cc2nc3ccccc3c(=O)n2C)c2ccccc21 (stereo not given) | 15
CCOc1ccccc1-c1nc(CN(c2ccc(OC)cc2)S(=O)(=O)c2cccs2)c(C)o1 | -39
CC(C)Nc1nc(-c2nnc(-c3cccc(Cl)c3)o2)nc2ccccc12 | -40
O=c1cccnn1CC1CN(c2ncccn2)Cc2nccn2C1 (stereo not given) | 4
CC1CCN(c2ncnc3c2cnn3CC(=O)Nc2ccc(Cl)cc2F)CC1 | 82
COc1ccccc1-n1c(=O)n(Cc2nc(-c3cc(C)ccc3C)oc2C)c(=O)c2cccnc21 | 7
Cc1cccc(NC(=O)c2cccs2)n1 | -36
COCC(=O)N1CCO[C@]2(CCC[C@H]2COc2ccccn2)C1 | -7
CC(C)c1ccc2c(c1)CCC1[C@](C)(CN)CCC[C@]21C (stereo not given in full) | -9
N#C[C@@H]1N[C@H](CO)[C@H]1c1ccc(-c2cccc(F)c2)cc1 | -27
Cc1ccc(F)c(CN2CCC3(CCNCC3)C2)c1Cl | -5
CN(Cc1n[nH]c2c1CCCCC2)S(=O)(=O)NCc1ccccc1 | -5
Cc1nc(SCC(=O)NC(C)c2cccnc2)oc1C (stereo not given) | 1
Cc1cccc(CN2C[C@@H]3N(c4ncccn4)CCC[C@@]3(C(=O)N(C)C)C2)c1 | 6
NC(=O)C1(N2CCCCC2)CCN(S(=O)(=O)c2cc(Cl)sc2Cl)CC1 | -38
O=S(=O)(C1CC1)N1CC[C@@H]2[C@H]1CCN2Cc1ccc(F)cc1 | -4
CCS(=O)(=O)N1CC2(CN(C(=O)Nc3c(C)noc3C)[C@@H](CO)c3[nH]c4cc(OC)ccc4c32)C1 | 87
COc1ccc(NC(=O)N(C)C[C@H]2Oc3ccc(NC(=O)Nc4cccc5ccccc45)cc3CC(=O)N([C@@H](C)CO)C[C@H]2C)cc1 | 6
CCN1c2cc(Cl)ccc2C(=O)NC12CCN(C(=O)NCc1ccc(C)cc1)CC2 | 74
CN(C)CCNC(=O)c1cc2c(s1)CCN2C(=O)C1CC1 | 2

(list continues)
SMILES	Tgondii IFNg
CC(C)(O)C#Cc1ccc(C(=O)NCc2csc(-c3ccccc3)n2)o1	-32
CN1CCC2(CC1)OCCN(Cc1cccnc1)c1ccccc12	-39
CSc1cccc(NC(=O)CN2CCC3(CC2)N=C(c2cccc(Cl)c2)C(=O)N3)c1	-81
Cc1ccc(NC(=O)Cn2c(=O)cc(C(=O)N3CCc4ccccc4C3)c3ccccc32)cc1C	-7
COCC1CCN(c2ccc(C(=O)N3CCC(N4CCOCC4)CC3)cn2)C1 (stereo not given)	68
CCn1c(Cc2ccccc2)nnc1SCc1nnc(-c2ccccc2)o1	-3
CCCNC(=O)N1[C@@H]2Cn3c(ccc(-c4ccc(OC)cc4)c3=O)[C@H]1[C@@H](C(=O)NC1CCC1)[C@@H]2CO	3
CC(C)N(C)Cc1cnc2n1CCN(CC1CCOCC1)C2C (stereo not given)	-4
CO/N=C(\C(=O)N[C@@H]1C(=O)N2C(C(=O)OCOC(=O)C(C)(C)C)=C(C)CS[C@H]12)c1csc(N)n1	25
CC(C)CN(CC(C)C)C(=O)c1cc2cccnc2n(Cc2ccccc2)c1=O	-4
NC(=O)N1CCO[C@]2(CCC[C@H]2COCc2nccs2)C1	-7
COc1ccc(S(=O)(=O)N2CCN(C(=O)COc3ccc4c(C)cc(=O)oc4c3)CC2)cc1	8
CCN(CCc1nc2ccc(C)cc2[nH]1)C(=O)c1cnn2cc(CCO)cnc12	-6
CCN1c2cc(C)ccc2-n2cccc2C12CCN(S(=O)(=O)c1ccc(OC)cc1)CC2	-91*
O=C(c1ccco1)N1CCN(C(=O)c2cc3cccnc3n(Cc3ccc(F)cc3)c2=O)CC1	-15
CN(C)CCOCc1nnn2c1CN(C(=O)c1cccs1)CCC2	26
O=C(O)c1ccccc1-c1ccccc1C(=O)NCc1ccccc1F	0
O=C(c1cscn1)N1CC[C@@H](c2ccc3ccccc3c2)[C@H](O)C1	-11
COc1ccc2c3c([nH]c2c1)[C@H](CO)N(C(=O)CC1CC1)CC31CCN(Cc2ccncc2)CC1	55
COc1ccc(-c2cc(=O)c3ccc(O)cc3o2)cc1	-8
CCCN1C[C@H](C)[C@@H](OC)CN(C)C(=O)c2cc(NS(=O)(=O)c3ccccc3)ccc2OC[C@H]1C	30
Cn1c(=N)n(CC(O)c2cccs2)c2ccccc21 (stereo not given)	9
O=C(Nc1cccc2cccnc12)c1ccccc1C1CCNC1 (stereo not given)	21
CN(C)CCCN(Cc1ccccn1)Cc1c(-c2ccc(F)cc2)nc2ncccn12	28
CN1C(=O)CC2C1CCN2C(=O)c1csnn1 (stereo not given)	44
CCCC(=O)Nc1ccc2c(c1)C(=O)N(C)[C@H]1CC[C@H](CC(=O)N3CCCCC3)O[C@H]1CO2	0
CSc1nnc(SCCS(=O)(=O)c2ccc(Cl)cc2)s1	20
COc1ccc(-c2nc(C)c(CCNS(=O)(=O)c3ccccc3F)s2)cc1OC	i
COc1ccc(-c2nc(NCc3ccc(C)cc3)c3ccccc3n2)cc1	-46
COCCN1CCC2(CC1)CC(OCC1CC1)c1ccc(F)cc12 (stereo not given)	3
COc1ccc(Cl)cc1NC(=O)N1CCC2(CC1)Nc1cc(F)ccc1-n1cccc12	16
COc1ccc(C(=O)NC(C)Cc2cc(C)[nH]n2)o1 (stereo not given)	5
CN(Cc1ncc[nH]1)Cc1ccc(-c2nc3ccccc3n2C)o1	128
CC(C)C/C=C(\CN1CCOC2(CNCCOC2)C1)c1ccccc1 (stereo not given)	-32
C=CCn1c(=O)c(C(=O)Nc2ccc(N(C)C)cc2)c(O)c2ccccc21	i
CS(=O)(=O)c1ccc(-c2ccnc3c(C(F)(F)F)cccc23)cc1	-7
Cc1cc(C)n(CCCN(C)Cc2cn(C(C)C)c3cc(F)ccc23)n1	-61
O=c1cc(CN2CCC3(CCNCC3)C2)c2cccc3c2n1CCC3	-3
Cc1n[nH]c(C)c1CCN(C)C(=O)c1cn(C2CCCCCC2)nn1	3
O=C(c1ccc(Cl)cc1)N1CCC2(CC1)Nc1ccc(Cl)cc1-n1cccc12	31
N#C[C@@H]1[C@H](c2ccccc2-c2ccccc2F)[C@H](CO)N1C(=O)C1CCC1	-35
COc1ccccc1NC(=O)N1CCCC1C(=O)NCc1ccc(C)cc1 (stereo not given)	4
CCc1ncc2c(n1)CN(C(=O)c1ccc(-n3ccnc3)cc1)C2	-4
O=C(C1CCCO1)N1CCC(n2nc(-c3ccccc3)oc2=O)CC1 (stereo not given)	9
CC(C)[C@H](CO)Nc1nc(Nc2ccc(C(=O)O)c(Cl)c2)c2ncn(C(C)C)c2n1	-2&-62
Fc1cc2c(c(CSc3nc4ccccc4[nH]3)c1)OCOC2	-44
C[C@@H]1CCCCO[C@H](CN(C)Cc2ccc3c(c2)OCO3)[C@H](C)CN([C@@H](C)CO)C(=O)c2cc(NS(=O)(=O)c3cn(C)cn3)ccc2O1	11
COc1ccccc1N1CCN(CCCCN2C(=O)c3ccccc3C2=O)CC1	1&24
CNC[C@@H]1Oc2ccc(NC(=O)NC3CCCCC3)cc2CC(=O)N([C@@H](C)CO)C[C@H]1C	-8
CN1C[C@@H]2[C@H](c3ccccc31)[C@H](CO)N2S(=O)(=O)c1ccccc1	5
CCOc1ccc(C(N)=O)c(SCC(=O)O)c1	1
COCC(=O)Nc1ccc2c(c1)C(=O)N(C)C[C@@H](OC)[C@@H](C)CN(C(=O)c1ccncc1)[C@@H](C)CO2	82
COc1ccc(CCNC(=O)N2CCN(CC(C)C)C(=O)C2C)cc1 (stereo not given)	-5
Cn1cc(C(=O)Nc2cccc(C(=O)O)c2)cn1	22
CSCCCN1CCCCC1c1ccccn1 (stereo not given)	88
O=C(Nc1cccc(Cl)c1)C1Cn2ccnc2C2(CCN(C(=O)C3CCC3)CC2)O1 (stereo not given)	-46
Cn1ccc(-c2n[nH]c(=O)n2Cc2cccs2)n1	4
Cc1nc2c(c(=O)[nH]1)CCN(C(=O)c1cccc(N3CCCCS3(=O)=O)c1)C2	-3
CC(C)Nc1ncnc2c1cnn2-c1ccccc1	-61
COc1cc2cccc(OC)c(=O)c2c(OC)c1OC	37

(list continues)
SMILES	Tgondii IFNg
C=CCC(O)(CC=C)CN1CC(C(=O)O)CC1=O (stereo not given)	3
CCC(=O)N1[C@@H]2c3ccc(-c4ccc(F)cc4)c(=O)n3C[C@@H]2[C@@H](CO)[C@@H]1C(=O)N(C)C	-3
Cc1cc(F)cc(-c2c(-c3ccccc3)ncn2CCOCCO)c1	-11
CC(C)c1nnsc1CN1CCCC(O)(CO)C1 (stereo not given)	-6
COc1ccc(NC(=O)N[C@H]2CC[C@H](CCNC(=O)CN3CCOCC3)O[C@H]2CO)cc1	-7
O=C(c1ccccc1Br)N1CCc2c([nH]c3ccccc23)C1c1ccc(Cl)cc1 (stereo not given)	358

Some of the compounds tested; count on the stated rates, not on these rows.
